Source: PubChem BioAssay (National Center for Advancing Translational Sciences (NCATS))
Rango dissoc inh = qHTS Assay for Inhibitors of RanGTP induced Rango (Ran-regulated importin-beta cargo) - Importin beta complex dissociation; hit rate 0.071% among 340,000; Biochemical FRET Rango-importin beta, RanGTP-induced dissociation; Potency, µM (highest dose often 46.1 µM), inactives show at the top dose activity change, negative = inhibition; AID 540253, 2011; active means falling FRET ratio curve, often poorly fitted, with flat reads before Ran was added; inconclusive means other falling curves, or compound fluorescence or quenching; inactive means flat or rising ratio curve;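 further: potency means the concentration at half of the fitted maximal effect; % of control where 0% means no effect; nearly all actives have a fitted effect of over 45% in size; -100% = wells without RanGTP and RCC1; the record marks most hits as doubtful in a second field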
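Compounds sat 5 min at room temperature with 0.1 uM Rango biosensor plus 0.25 uM importin beta, then FRET pre-read. RanGTP-RCC1 (0.6 uM Ran, 2mM GTP, 0.2 uM RCC1) added for 45 min, and the CFP/YFP post-read measured blocked complex dissociation.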
miR-21 reporter = qHTS Assay for Modulators of miRNAs and/orActivators of miR-21; 340,000 tested, under 10 active; AID 2288, 2010; HeLa miR-21 FLuc reporter, luciferase, 48 h; Potency, µM (titrated, usually from 38.3 µM), inactives show at the top dose reporter change, positive = more light; active = well fitted rising curve with a large enough effect; inconclusive = small, poorly fitted or top-dose-only effect; inactive = no such curve, though single readings can be large or run the other way;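 further: % of control where 0% means no effect; miR-21 action dims this reporter so a rising signal means less miR-21 action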
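Using DMEM plus 10% FBS, HeLa miR-21-FLuc cells are incubated with test compounds (final up to about 40uM) for 48 hours; firefly luciferase signal is then imaged following reagent-mediated lysis.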
Rango complex inh = qHTS Assay for Inhibitors of Rango (Ran-regulated importin-beta cargo) - Importin beta complex formation; Potency, µM (doses to about 92.2 µM), for inactives: at the top dose inhibition of complex formation; Importin subunit beta-1 (Homo sapiens), Q14974; Rango CFP/YFP FRET sensor + importin beta, 45 min; hit rate 0.031% among 340,000; active = rising FRET ratio curve, often small or poorly fitted; inconclusive = mostly compound fluorescence or quenching in the first reads; inactive = flat curves in all reads;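 further: potency means the concentration at half of the fitted maximal effect; 0% = DMSO wells and 100% = buffer wells lacking importin beta; nearly all actives have a fitted effect of over 15% in size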
Target sequence (Q14974 whole entry, looked up): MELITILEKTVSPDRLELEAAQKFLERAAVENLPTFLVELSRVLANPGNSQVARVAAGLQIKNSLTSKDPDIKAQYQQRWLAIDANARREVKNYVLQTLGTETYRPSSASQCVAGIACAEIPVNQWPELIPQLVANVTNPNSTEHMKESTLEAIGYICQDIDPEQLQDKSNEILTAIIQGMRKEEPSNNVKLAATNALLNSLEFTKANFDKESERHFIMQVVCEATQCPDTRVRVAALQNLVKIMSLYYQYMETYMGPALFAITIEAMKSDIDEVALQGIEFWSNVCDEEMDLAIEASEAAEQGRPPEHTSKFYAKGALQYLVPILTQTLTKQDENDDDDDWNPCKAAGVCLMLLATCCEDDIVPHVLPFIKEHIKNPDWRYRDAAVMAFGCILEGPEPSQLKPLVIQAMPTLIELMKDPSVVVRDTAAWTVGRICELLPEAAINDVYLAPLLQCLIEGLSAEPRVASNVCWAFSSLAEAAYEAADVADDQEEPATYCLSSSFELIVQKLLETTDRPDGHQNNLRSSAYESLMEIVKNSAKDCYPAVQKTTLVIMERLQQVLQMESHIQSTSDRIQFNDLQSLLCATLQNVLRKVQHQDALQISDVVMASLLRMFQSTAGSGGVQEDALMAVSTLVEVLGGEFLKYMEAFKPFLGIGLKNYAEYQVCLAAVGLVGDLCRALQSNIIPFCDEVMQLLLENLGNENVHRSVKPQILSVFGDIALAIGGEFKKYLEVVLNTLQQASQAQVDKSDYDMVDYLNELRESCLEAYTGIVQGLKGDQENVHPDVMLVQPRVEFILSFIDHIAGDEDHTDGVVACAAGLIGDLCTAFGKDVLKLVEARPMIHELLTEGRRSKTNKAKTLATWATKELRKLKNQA
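FRET biosensor Rango (snurportin 1 IBB between N-terminal EYFP and C-terminal Cerulean), 50 nM in PBS/1 mM DTT/0.02% Tween-20/0.1% BSA, preincubated 5 min RT with compound; 0.125 microM importin beta added, 45 min RT, CFP/YFP FRET ratio read.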
GLA inh pH 4.5 = qHTS Assay for Inhibitors of Human alpha-Galactosidase at pH 4.5; Alpha-galactosidase A (Homo sapiens), P06280; purified enzyme, 4-MU-alpha-Gal fluorescence, pH 4.5; activity change, negative = inhibition, % at 105 µM; 230,000 tested, under 10 active; inconclusive = small, poorly fitted or top-dose-only inhibition, or a rising curve; inactive = flat fitted curve, though single readings scatter; no compound was filed as active;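 further: 0% = full activity with enzyme and -100% = basal without enzyme; dose as in the result columns while the protocol names 77 µM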
* hit, by the source's call; ? = inconclusive; . = no result given; & = joins results of further samples. Some of the compounds tested, so the mix of outcomes need not match the whole.

A first look, 4 compounds:
Rango dissoc inh	miR-21 reporter	Rango complex inh	GLA inh pH 4.5	SMILES
0%	-2%	0.5%	3	Cc1cc(C(=O)OCC(=O)NC(=O)c2cccn2C)c2ccccc2n1
5%	.	-3.2%	.	NC(=O)C1(Nc2ccc(Br)cc2)CCCC1
1%	-1%	0.6%	3	FC(F)(F)c1ccc(N2CCOCC2)c(NC2=NCCCCC2)c1
0%	-53%	3.0%	2	O=C(Cn1cc2c(n1)CCCCC2)NC1CCCCCC1

The whole of this part, from the first entry:
Rango dissoc inh	miR-21 reporter	Rango complex inh	GLA inh pH 4.5	SMILES
0%	-2%	0.5%	3	Cc1cc(C(=O)OCC(=O)NC(=O)c2cccn2C)c2ccccc2n1
5%	.	-3.2%	.	NC(=O)C1(Nc2ccc(Br)cc2)CCCC1
1%	-1%	0.6%	3	FC(F)(F)c1ccc(N2CCOCC2)c(NC2=NCCCCC2)c1
0%	-53%	3.0%	2	O=C(Cn1cc2c(n1)CCCCC2)NC1CCCCCC1
5%	-1%	1.0%	0	CN=C(Nc1cc(C)nn1-c1ccccc1)c1ccc(F)cc1
7%	27%	-0.4%	-1	COc1ccc(CCNC(=O)C(=O)NCC2OCCN2S(=O)(=O)c2ccc(Br)cc2)cc1OC (configuration not stated)
22%	.	-1.0%	.	Cc1cn(CC(=O)NCCCN2CCCC2=O)c(=O)[nH]c1=O
25%	0%&-34%	1.7%	.	CC(C)CN(c1ccccc1)S(=O)(=O)c1nnc(NC(=O)c2ccco2)s1
2%	1%	-0.5%	1	CCCc1nnc(NC(=O)CCC(=O)N2CCCCCC2)s1
1%	-7%	8.7%	-11	CN(CCOC(=O)c1ccc2c(c1)OCCO2)C(C)(C)C
?	-4%	?	-4	NS(=O)(=O)c1ccc(N=Cc2c(O)n(-c3nccs3)c(=O)c3ccccc23)cc1
0%	4%	-0.6%	0	CC1(C)CC(=O)C(CCCN2C(=O)c3ccccc3C2=O)C(=O)C1
-7%	.	-3.7%	.	COc1ccc(OC)c(NC(=O)CSc2nc(=O)n(CCN3CCOCC3)c3c2CCCC3)c1
5%	2%	4.6%	.	COc1ccc(OC)c(C(C)NC(=S)Nc2ccc(S(=O)(=O)Nc3ncccn3)cc2)c1 (configuration not stated)
-29%	.	?	.	Cc1ccc(OCC(=O)Nc2cccc3ccccc23)c([N+](=O)[O-])n1
0%	-10%	-1.8%	.	C/C(N)=C(/C#N)C(=O)CSc1nc(-c2ccccc2)c(-c2ccccc2)o1
-7%	1%	-0.3%	-4	O=C(C1CCCN(Cc2ccccc2F)C1)N1CCc2ccccc2C1 (configuration not stated)
44%	.	0.4%	.	C=CCNc1nc(C(=O)OC(C)C(=O)c2ccc(C)cc2)cs1 (configuration not stated)
1%	-6%	-0.4%	6	O=C(O)CC(c1cccc2ccccc12)N1Cc2ccccc2C1=O (configuration not stated)
-2%	13%	-2.5%	5	CC(=O)Nc1cccc(NC(=O)c2c(-c3c(Cl)cccc3Cl)noc2C)c1
-12%	-4%	-0.1%	-7	Cn1cnnc1SCC(=O)N1CCc2ccccc21
2%	15%	0.6%	-18	COc1ccc(-c2cc(C(=O)N3CCN(C(c4ccccc4)c4ccccc4)CC3)no2)cc1OC
-8%	-6%	-0.1%	-16	CCCCCCCOC1(c2ccccc2)OC(=O)c2ccccc21 (configuration not stated)
0%	-61%	0.4%	-8	O=C(CSc1nc2ccccc2s1)N/N=C/c1ccccc1C(=O)O
31%	-8%	2.9%	-5	Cc1ccc(C(=O)OC2OC(=O)C(Cl)=C2N2CCOCC2)cc1 (configuration not stated)
6%	6%	3.7%	0	O=C1C2C3c4ccccc4C(c4ccccc43)C2C(=O)N1c1ccncc1 (configuration not stated)
-12%	-31%	-1.3%	.	Cc1ccc(C)c(OCC(=O)Nc2cc(NC(=O)COc3cc(C)ccc3C)cc(C(=O)O)c2)c1
7%	-4%	-2.1%	-5	CC(=O)Nc1ccc(S(=O)(=O)NCc2cccnc2)cc1
-5%	-9%	-0.9%	-8	COCC(=O)Nc1ccc(Br)cc1
-1%	-7%	-2.6%	-4	CN1CCN(C(=O)C(Cc2ccccc2)NS(=O)(=O)c2ccc3c(c2)CCC(=O)N3)CC1 (configuration not stated)

Limited to Rango complex inh, Rango dissoc inh and miR-21 reporter (three entries from above):
molecule,Rango complex inh,Rango dissoc inh,miR-21 reporter
Cc1cn(CC(=O)NCCCN2CCCC2=O)c(=O)[nH]c1=O,-1.0%,22%,.
CC(C)CN(c1ccccc1)S(=O)(=O)c1nnc(NC(=O)c2ccco2)s1,1.7%,25%,0%&-34%
CCCc1nnc(NC(=O)CCC(=O)N2CCCCCC2)s1,-0.5%,2%,1%

Remaining list, next part
Rango dissoc inh	miR-21 reporter	Rango complex inh	GLA inh pH 4.5	SMILES
-4%	-8%	-0.2%	9	COc1ccc(NC(=O)c2ccc3c(c2)NC(=O)CO3)cc1OC
0%	19%	?	-3	Cc1ccc(C(=O)c2cc([N+](=O)[O-])ccc2N2CCCCC2)cc1
-9%	-8%	-2.9%	-15	CC(=O)c1ccc(OC(C)C)c(CN2CCCCC2)c1
-10%	-1%	-1.5%	-4	O=C(COC(=O)C1CCN(S(=O)(=O)c2cccs2)CC1)NCc1ccccc1
-2%	4%	-1.8%	2	O=C(Nc1ccccc1N1CCCC1)c1cccc(Cl)c1Cl
-6%	-9%	-6.0%	-4	CN(C)c1ccc(C(=O)OCC(=O)Nc2ccc(S(N)(=O)=O)cc2)cc1
0%	27%	0.0%	0	Cc1ccc2c(c1)Oc1ccc(NC(=O)CCCl)cc1C(=O)N2
2%	-28%	-0.8%	2	CCC(CC)C(=O)Nc1nnc(-c2cccs2)s1
1%	-18%	-1.7%	2	Cc1ccc(CNC(=O)CSc2nnnn2C)cc1
0%	27%	-1.7%	-10	Cc1cc(C(=O)CSc2nc(N)cc(=O)[nH]2)c(C)n1CCc1ccc(Cl)cc1
-17%	-18%	3.6%	.	O=C(Nn1cnc2ccccc2c1=O)c1ccccc1F
0%	-13%	3.7%	1	Cc1ccc(CNC(=O)c2ccc(C#CC(C)(C)O)s2)cc1
17%	.	6.8%	.	Cc1ccc(Nc2nc(NCCO)nc(N3CCCC3)n2)cc1
17%	0%	8.8%	2	COc1cc(C)nc(N2CCC(C(N)=O)CC2)n1
-2%	-6%	-1.0%	.	CC(=O)c1cccc(NC(=S)N2CCN(S(C)(=O)=O)CC2)c1
0%	23%	-2.7%	.	CCc1ccccc1N(C)S(=O)(=O)c1ccc(-c2cc(C)no2)s1
0%	.	2.4%	.	COC(=O)c1ccc(CSC2=NC[C@@H]3[C@@H]4C(=O)N(Cc5ccccc5)C(=O)[C@@H]4[C@](C)(C(=O)OC)N23)cc1
?	-41%	?	-3	COc1cccc(N2C(=O)/C(=C\c3cccs3)NC2=S)c1
2%	-13%	-0.4%	1	O=C(CN1C(=O)C2CC=CCC2C1=O)Nc1nnc(SCc2ccc(Cl)cc2)s1 (configuration not stated)
6%	.	-1.3%	.	Cc1nc2c(Br)cc(Br)cc2c(=O)n1-c1ccccc1NC1OCC(O)C(O)C1O (configuration not stated)
-1%	1%	2.0%	-9	Cc1cc(Cl)ccc1OCC(=O)N/N=C/c1ccc(OC2OC(CO)C(O)C(O)C2O)cc1 (configuration not stated)
6%	.	-0.3%	-9	O=C(N[C@@H](Cc1ccccc1)C(=O)CCl)OCc1ccccc1
-6%	0%	0.4%	-18	CCC(c1nnc(SCC(=O)Nc2ccc(Cl)cc2C(F)(F)F)n1C1CCCCC1)N(C)C (configuration not stated)
-11%	-40%	2.5%	-5	Nc1ccc(C(=O)N/N=C2\CCCc3c2[nH]c2ccccc32)cc1
2%	-15%	-0.8%	-8	CC(C)(C)C1=Nn2c(nnc2-c2ccccc2F)SC1
-4%	.	2.5%	.	CC/C(=N\N=C(/CC)c1ccccc1N)c1ccccc1N
-2%	.	5.0%	.	Cc1ccc(S(=O)(=O)CCC(=O)NNC(=O)CN(C)S(=O)(=O)c2ccc(C)cc2)cc1
-2%	.	5.1%	.	CC1CC(=O)C(C(C2=C(O)CC(C)CC2=O)c2ccccc2)=C(O)C1 (configuration not stated)
-7%	0%	-2.3%	-5	COCC(=O)Nc1ccc(Br)cc1C
4%	-19%	0.1%	0	C=CCn1sc(N)c(C(=O)OCC)c1=S
-15%	.	-0.9%	.	O=C1OC(c2ccccc2)C(O)=C1c1ccccc1 (configuration not stated)
3%	-7%	1.6%	3	Fc1ccccc1/C=N/n1cnnc1
.	-6%	.	3	Cc1c(/C(O)=C2\C(=O)C(=O)N(CCCN(C)C)C2c2ccncc2)cnn1-c1ccccc1 (configuration not stated)
5%	28%	1.9%	-6	Cc1ccc(Nc2nnc(SCC(=O)Nc3cccc(S(=O)(=O)NC4=NCCCCC4)c3)s2)c(C)c1
32%	.	0.2%	.	CCOC(=O)N1CCC(NCCNC(=O)c2cccc(F)c2)CC1
-20%	-5%	-1.6%	.	Cc1cc(C)cc(C(=O)Nc2nnc(SCC(=O)NCC3CCCO3)s2)c1 (configuration not stated)
-2%	-2%	?	-1	Cc1ccc(NC(=O)COC(=O)CN2C(=O)COc3ccccc32)cc1
-7%	-2%	6.4%	3	CC(Cc1ccsc1)NC(=O)CCc1nnc(CCc2ccccc2)o1 (configuration not stated)
-6%	-6%	5.5%	.	CC1(C)CC(=O)C/C(=N/NC(=O)COc2ccc3ccccc3c2Br)C1
?	-41%	?	5	COc1ccc2nc(N3CCCCC3)c(C#N)cc2c1
22%	.	3.3%	.	CCOC(=O)C1CCN(C(=O)COC(=O)CSc2ccc([N+](=O)[O-])cc2)CC1
0%	-21%	?	-12	CC(=C/c1ccco1)/C=N/NC(=O)c1ccncc1
-9%	-9%	0.1%	6	Cc1csc(SCC(=O)Nc2ccc(S(=O)(=O)N3CCCC3)cc2)n1
-7%	-4%	0.9%	-12	CCN(CC)c1ccc(C2CC(=O)Nc3cc(OC)c(OC)cc32)cc1 (configuration not stated)
7%	21%	1.1%	.	CCCC(=O)Nc1ccc2c(c1)nc(CN1CCN(C(=O)OCC)CC1)n2CC
1%	1%	1.8%	.	CC1(C)CC(=O)c2c(O)cc(OCC(=O)N3CCN(c4ccc(F)cc4)CC3)cc2O1
2%	-1%	4.8%	-20	CCOC(=O)c1ccc(Oc2nc(N(C)C)nc(N(C)C)n2)cc1
?	.	-2.9%	.	CCCCN1C(=N)N([C@@H](CCC)CN2CCC[C@H]2CN2C(N)=NC[C@@H]2Cc2ccccc2)C[C@H]1Cc1ccccc1
0%	-2%	0.8%	-17	Cc1nc(CSc2n[nH]c(=O)n2-c2cccc(F)c2)cs1

Part of the list above, reformatted.
molecule	Rango dissoc inh	miR-21 reporter	Rango complex inh	GLA inh pH 4.5
CCOC(=O)C1CCN(C(=O)COC(=O)CSc2ccc([N+](=O)[O-])cc2)CC1	22%	.	3.3%	.
CC(=C/c1ccco1)/C=N/NC(=O)c1ccncc1	0%	-21%	?	-12
Cc1csc(SCC(=O)Nc2ccc(S(=O)(=O)N3CCCC3)cc2)n1	-9%	-9%	0.1%	6
CCN(CC)c1ccc(C2CC(=O)Nc3cc(OC)c(OC)cc32)cc1 (configuration not stated)	-7%	-4%	0.9%	-12
CCCC(=O)Nc1ccc2c(c1)nc(CN1CCN(C(=O)OCC)CC1)n2CC	7%	21%	1.1%	.
CC1(C)CC(=O)c2c(O)cc(OCC(=O)N3CCN(c4ccc(F)cc4)CC3)cc2O1	1%	1%	1.8%	.
CCOC(=O)c1ccc(Oc2nc(N(C)C)nc(N(C)C)n2)cc1	2%	-1%	4.8%	-20
